# ClpP mod = qHTS Assay for Activators of ClpP | ATP-dependent Clp protease proteolytic subunit (Bacillus subtilis (strain 168)), P80244 | purified B. subtilis ClpP, FRET peptide cleavage, 20 min | Potency, µM (doses to about 57.5 µM), inactives show top-dose activity change, negative = active | 1.9% of 340,000 active | AID 651965, 2013; active = well fitted falling curve with a large enough effect; inconclusive = small, poorly fitted or top-dose-only effect; inactive = no such curve, though single readings can be large or run the other way; also: potency is read from the fitted curve at half-maximal effect; the source files actives as falling curves though it sought activators and does not explain the sign; nearly all actives have a fitted effect of over 65% in size; many hits overshoot -100%
# Target sequence (P80244 whole entry, looked up): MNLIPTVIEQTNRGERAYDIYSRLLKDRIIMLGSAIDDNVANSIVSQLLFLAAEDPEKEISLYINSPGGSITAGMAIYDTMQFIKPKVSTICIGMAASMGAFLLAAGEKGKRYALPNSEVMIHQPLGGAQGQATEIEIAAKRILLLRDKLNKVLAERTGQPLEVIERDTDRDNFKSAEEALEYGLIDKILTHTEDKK
#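 ClpP 10 microg/mL final, pH 8 Tris/KCl buffer with BSA, glycerol, Tween-20; compound pinned in; FRET-FV substrate; RT 20 min; Ex320/Em430; ΔFRET vs ADEP 5.8 microM, DMSO, no enzyme.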
# gsp ag = activates gsp, the McCune-Albright syndrome mutation | gsp mutant cells, cAMP HTRF, 30 min; control for the full effect not named in the record | AID 624287 | Potency, µM (doses to about 76.9 µM), for inactives: top-dose activation (cAMP increase), usual class: activators | 0.13% of 340,000 active; active = well fitted activation curve with a large enough effect; inconclusive = small, poorly fitted or top-dose-only effect, or another doubt; inactive = no such curve, though single readings can be large or run the other way; cell line not stated here;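 also: phosphodiesterase inhibitor Ro 20-1724 added with compounds to block cAMP breakdown; potency is read from the fitted curve at half-maximal effect; nearly all actives have a fitted effect of over 60% in size; about a fifth of the inactives were tested at one dose only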
#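 Cells stably selected in G418 were plated at 2000/well, grown 16-24 hr, then given compounds in DMSO with the PDE inhibitor […] (300 uM solution added) for 30 min at 37C; cAMP was read by HTRF.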
# TRPV1 PAM = human TRPV1 potentiation; TRPV1-expressing cells, Fluo-8 calcium influx, capsaicin EC20 potentiation; host cell line not named in the record; control for the full effect not named in the record; potentiation, % at 8.33 µM; 0.02% of 320,000 active; AID 540277; active means potentiation above 80%; inconclusive means 30% to 80%; inactive means below 30%; also: 0% is about no effect
# Target sequence (Q8NER1 whole entry, looked up): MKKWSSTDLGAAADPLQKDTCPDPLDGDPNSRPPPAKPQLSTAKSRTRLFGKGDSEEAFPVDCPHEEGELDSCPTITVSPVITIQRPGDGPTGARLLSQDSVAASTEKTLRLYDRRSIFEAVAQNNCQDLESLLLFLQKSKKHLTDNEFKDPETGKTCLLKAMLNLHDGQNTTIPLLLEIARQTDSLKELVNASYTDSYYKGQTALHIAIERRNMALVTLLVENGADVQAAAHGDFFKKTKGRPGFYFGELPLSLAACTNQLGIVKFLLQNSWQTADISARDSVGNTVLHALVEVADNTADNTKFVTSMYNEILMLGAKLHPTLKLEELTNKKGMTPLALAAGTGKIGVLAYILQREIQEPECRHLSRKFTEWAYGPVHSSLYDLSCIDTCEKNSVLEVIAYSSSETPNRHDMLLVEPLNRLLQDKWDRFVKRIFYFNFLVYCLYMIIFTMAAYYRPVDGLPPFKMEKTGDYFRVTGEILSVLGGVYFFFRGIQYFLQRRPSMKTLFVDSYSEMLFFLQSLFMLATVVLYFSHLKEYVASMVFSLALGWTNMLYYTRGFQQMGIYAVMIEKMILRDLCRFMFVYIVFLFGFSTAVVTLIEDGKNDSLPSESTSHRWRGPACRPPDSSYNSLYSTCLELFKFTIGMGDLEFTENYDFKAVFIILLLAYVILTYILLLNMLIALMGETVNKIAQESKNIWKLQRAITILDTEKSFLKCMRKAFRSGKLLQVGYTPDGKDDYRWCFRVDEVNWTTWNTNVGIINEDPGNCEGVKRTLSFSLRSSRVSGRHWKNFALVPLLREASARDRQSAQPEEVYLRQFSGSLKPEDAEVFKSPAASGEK
#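 TRPV1-expressing cells were cultured overnight at 35.5C and loaded with Fluo-8 calcium dye for 40 to 90 min at room temperature. After a 10 s baseline, compound was added and calcium influx was read kinetically for 3 min (ex 480/em 520 nm).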
# Sfp inh = inhibitors of Bacillus subtilis Sfp phosphopantetheinyl transferase; Q9F4F7; Biochemical Sfp PPTase activity, qHTS; Potency, µM, without a hit: max response, negative = inhibition, usual class: inhibitors; 3.5% of 310,000 active; AID 1490; active = well fitted inhibition curve with a large enough effect; inconclusive = small, poorly fitted or top-dose-only effect, or another doubt; inactive = no such curve, though single readings can be large or run the other way;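 also: the enzyme is Sfp with the accession as filed and its product quenches rhodamine fluorescence; potency is read from the fitted curve at half-maximal effect; 0% = enzyme reaction without inhibitor and -100% = no enzyme wells; top concentration of the series not given in the record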
#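 Step 1, compound plus 15 nM Sfp-PPTase, 15 min, room temperature. Step 2, add rhodamine-CoA (5 uM) and BHQ-2-YbbR (12.5 uM). Step 3, read 525/598 nm fluorescence at 0 and 30 min.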
# Menin-MLL FL inh = menin-MLL binding inhibition, fluorescein peptide; FP activity change, % at 61.4 µM; 290,000 tested, under 10 active; Fluorescence polarization, fluorescein-MLL peptide displacement from menin; inconclusive = falling polarisation curve, or a change in total fluorescence; inactive = total fluorescence flat and polarisation flat or rising; no compound was filed as active; the % refers to the polarisation; negative = inhibition;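 also: % of control where 0% means no effect; inhibitors lower the polarisation; unlabelled MLL peptide was the positive control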
# D2 PAM = potentiates the human D2 dopamine receptor allosterically | P14416 | potentiation, % (test concentration not listed) | 0.23% of 360,000 active | DiscoveRx D2 beta-arrestin cells, luminescence, 90 min; 100% = 57 uM dopamine signal; active = potentiation of 50% or more; inconclusive = 30% to 50%; inactive = 30% or less;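 also: compound concentration not given in the record; tested on top of an EC20 dose of dopamine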
#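 PathHunter D2 cells, attached overnight at 37 deg C, received compound in DMSO plus dopamine at EC20 (50 nM final) for 90 min at 37 deg C. Beta-arrestin recruitment was read as luminescence after 1 h with detection reagent at ambient temperature.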
# gsp antag = antagonists of gsp mutant (McCune-Albright syndrome). gsp-mutant cells, cAMP HTRF, 30 min; control for the full effect not named in the record. Potency, µM (top dose mostly 76.9 µM), without a hit: at the highest dose activity change, negative = inhibition, actives largely listed as inhibitors. 0.4% of 340,000 active. AID 624288; active = falling curve of any shape with a large fitted effect; inconclusive = falling curve, mostly with a smaller effect; inactive = flat or rising curve; cell line not stated here;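 also: intracellular cAMP measured with PDE inhibitor Ro 20-1724 present during compound exposure; potency is read from the fitted curve at half-maximal effect; % is scaled to controls: 0 for no effect and ±100 for the full control effect; nearly all actives have a fitted effect of over 65% in size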
#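 HTRF cAMP read-out (cAMP-d2 plus anti-cAMP antibody-K in lysis buffer, 30 min RT). Before lysis, cells are exposed to compounds with […] for 30 min at 37C in DPBS containing Ca/Mg, BSA and Tween 20.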
# Active calls of the source: *; ? = inconclusive; · = no result given; & = joins results of further samples; [ ] = another dose, or the depositor's remark. The order is random; about 5.1% have a hit in one of these screens.
SMILES	ClpP mod	gsp ag	TRPV1 PAM	Sfp inh	Menin-MLL FL inh	D2 PAM	gsp antag
COc1cccc(C(=O)NC2=NCCS2)c1	-7.2%	2%	5	15%	4.7	-4	15%
Cc1ccccc1C(=O)NC1CCN(CC(=O)NCc2ccccc2)CC1	·	-26%	3	7%	1.0	-15	-1%
CC(C)OC(=O)Nc1ccc(Oc2c(F)c(F)c(F)c(F)c2F)cc1	0.0%	5%	-15	18%	-0.1	9	-4%
Cc1noc(C)c1CSc1nnc2cc(C)c3ccccc3n12	0.7%	-14%	7	2%	-0.2	7	?
Cc1ccc(NC(=O)C(C)OC(=O)c2ccc(NC(=O)CC#N)cc2)cc1S(=O)(=O)N1CCOCC1 (stereo unspecified)	-7.5%	-21%	?	·	·	-1	8%
COc1ccc(N2CCN(C(=O)c3cccc(N4C(=O)C5C6C=CC(C6)C5C4=O)c3)CC2)cc1 (stereo unspecified)	-0.5%	3%	6	12%	-5.2	-4	-8%
Cc1ccc(NC(=O)CSc2nc(C)c(C)c(C)n2)c([N+](=O)[O-])c1	-1.1%	?	-7	-15%	6.0	-4	3%
Cc1ccc2c(c1)cc(CN(Cc1ccc3c(c1)OCO3)C(=O)c1cnccn1)c1nnnn12	-0.4%	1%	2	12%	1.3	4	3%
Cc1cc(NC(=O)/C=C/c2ccc(Br)cc2)no1	0.3%	-4%	-4	0%	2.7	-9	4%
Cc1cccc(N(C(=O)Cn2nnc3ccccc32)C(C(=O)NC(C)(C)C)c2ccsc2)c1C (stereo unspecified)	-1.0%	-1%	-10	10%	0.4	-16	-4%
Cc1ccc2[nH]cc(S(=O)(=O)c3ccc(F)cc3)c(=O)c2c1	·	7%[15.4 µM]	-12	6%	0.6	12	-3%
COC(=O)c1ccc(C(=O)OC)c(NC(=O)C(C)(C)C)c1	·	-11%[15.4 µM]	-7	23%	2.2	-1	6%
CCn1c(SCC(=O)O)nnc1C1CCCCC1	0.7%	-16%	-3	15%	0.1	3	4%
COc1cccc(OCC(O)CN2CCN(CCN3C(=O)c4cccc5cccc(c45)C3=O)CC2)c1 (stereo unspecified)	·	-4%	-21	10%	-0.3	-11	-16%
Cc1nc2ccccc2n1CCCOc1ccccc1	-1.7%	1%	-10	7%	2.8	-20	?
O=C(Cn1nc(Cc2cccnc2)c2ccccc2c1=O)NCC1CCCO1 (stereo unspecified)	-3.5%	?	6	26%	4.9	-7	3%
O=C(CC1C(=O)NCCN1CC1CCCCC1)NCCc1ccc(F)cc1 (stereo unspecified)	·	34%	-7	7%	7.0	-8	2%
CCOP(=O)(OCC)C(Nc1cccc(C(F)(F)F)c1)c1ccc(F)cc1 (stereo unspecified)	1.4%	-6%	-22	5%	1.6	11	-4%
CCOC(=O)C1CN(S(=O)(=O)c2ccc(C)cc2)c2ccccc2O1 (stereo unspecified)	·	-12%	-6	-9%	-3.8	-3	-8%
CCOC(=O)CCCCC(=O)c1[nH]c(=O)[nH]c1Cn1ccnc1	1.3%	-26%	4	79µM*	-2.6	-14	18%

# The listing continues:
SMILES	ClpP mod	gsp ag	TRPV1 PAM	Sfp inh	Menin-MLL FL inh	D2 PAM	gsp antag
CC(C)(C)c1cc2ncnc(N3CCCCC3)c2s1	-0.8%	3%[15.4 µM]	-21	0%	-3.6	-11	-11%
CC1CCN(S(=O)(=O)c2ccc3c(c2)c(=O)c(C(=O)NC2CCCC2)cn3C)CC1	0.7%	11%	-4	11%	5.1	1	-5%
COC(=O)CN1C(=S)N(Cc2ccccc2)C(=O)C1CC(=O)Nc1ccc(Br)cc1 (stereo unspecified)	0.7%	-17%	15	13%	0.0	-11	?
Cc1ccc(NC(=O)C2CCN(S(=O)(=O)c3ccc4c(c3)oc(=O)n4C)CC2)cc1	3.4%	?	2	13%	·	2	3%
CC(NS(=O)(=O)c1ccc(NC(=O)N2CCCCC2)cc1)c1ccccc1 (stereo unspecified)	1.0%	-33%	-2	12%	3.7	6	11%
C/C=C(\C)C(=O)OC1[C@H](OC(C)=O)C2(CO)C(CC1(C)C)C1=CCC3C4(C)CCC(O[C@@H]5O[C@H](C(=O)O)[C@@H](O[C@@H]6O[C@H](CO)[C@@H](O)[C@H](O)[C@H]6O)[C@H](O)[C@H]5O[C@H]5O[C@H](CO)[C@@H](O)[C@H](O)[C@H]5O)[C@](C)(CO)C4CCC3(C)[C@]1(C)C[C@H]2O (stereo partly specified)	0.2%	·	·	·	·	-63	?
COc1ccccc1C(=O)Nc1ccc(C(=O)N2CCCCC2)cc1	-1.6%	-3%	-7	2%	-0.4	21	0%
Fc1cccc(-c2cc3nc4c(c(NCc5ccco5)n3n2)CCCC4)c1	?	3%	-7	-27%	4.3	-2	?
CCNC(=S)N(Cc1ccco1)Cc1cc2cc(OCC)ccc2[nH]c1=O	4.3%	-39%[inhibitor]	0	10µM*	12	-1	?
O=c1oc2ccccc2c(O)c1CN1CCCCC1	-4.1%	10%	14	21%	3.1	-5	-27%
Cn1c(C(=O)NCC2CCCO2)cc2c(=O)n(C)c3ccccc3c21 (stereo unspecified)	3.9%	-1%	2	20%	2.2	7	18%
Nc1nc(C23CC4CC(CC(Cl)(C4)C2)C3)cs1	·	16%[15.4 µM]	2	6%	-1.4	10	-1%
CCOc1ccc(NC(=O)NC(=O)N(C)S(=O)(=O)c2ccc(C)cc2)cc1	-2.4%	-32%[inhibitor]	?	17%	0.6	-1	13%
N/C(=N\OC(=O)c1ccc(OCC(F)(F)F)nc1)c1ccc(Cl)cc1	·	8%[15.4 µM]	17	19%	3.0	53*	8%
O=C(COC(=O)CSc1ccc(F)cc1)NNC(=O)c1ccc([N+](=O)[O-])cc1	-0.3%	?	5	·	·	-8	6%
CN(CC(=O)Nc1ccc(F)cc1)C(=O)CSc1nncs1	1.4%	-1%[15.4 µM]	8	19%	·	-10	19%
CC(C)(C)C1CCC2(CC1)C(C#N)=C(SCC(=O)Nc1ccccc1)NC(=O)C2C#N (stereo unspecified)	-2.9%	-40%	-19	33%	4.5	-4	-22%
O=C(CSc1nc(=O)n2cc(Cl)ccc2n1)Nc1cccc2ccccc12	?	?	9	·	·	-6	-4%
C=C(C)c1cccc(C(C)(C)NC(=O)NC2CCN(Cc3ccccc3)CC2)c1	-3.8%	-3%	1	7%	-1.0	-26	-5%
O=C(N/N=C\c1cc(Br)ccc1O)c1ccc(S(=O)(=O)N2CCCCC2)cc1	1.5%	-5%[15.4 µM]	5	28%	?	-10	?

# Structures listed above marked active in D2 PAM.
Compound	gsp ag	Sfp inh	Menin-MLL FL inh	D2 PAM	gsp antag
N/C(=N\OC(=O)c1ccc(OCC(F)(F)F)nc1)c1ccc(Cl)cc1	8%[15.4 µM]	19%	3.0	53*	8%

# Next part.
SMILES	ClpP mod	gsp ag	TRPV1 PAM	Sfp inh	Menin-MLL FL inh	D2 PAM	gsp antag
Cc1nc2ccccc2c(=O)n1NC(=O)Cc1ccc([N+](=O)[O-])cc1	·	2%[15.4 µM]	0	13%	-4.3	-7	22%
COc1ccc(N2C(=O)c3ccccc3NC2c2cccnc2)cc1 (stereo unspecified)	-2.8%	-4%[15.4 µM]	17	9%	0.1	-7	-8%
Cc1ccc(S(=O)(=O)CCC(=O)Nc2ccc(S(=O)(=O)N(C)C)cc2)cc1	·	·	-3	22%	-9.7	·	·
COc1ccc(CC(=O)NNC(=O)c2nn(Cc3ccccc3)c(=O)c3ccccc23)cc1OC	1.5%	1%	·	-3%	2.6	-9	-10%
O=C(N/N=C/CCc1ccccc1)c1ccccc1	-1.1%	7%	-16	6%	-1.4	-25	11%
Cc1nn(C)c(N)c1[N+](=O)[O-]	-0.1%	0%	23	4%	-1.3	-14	-2%
Cc1cc(NC(=O)c2cc(-c3cccc(Cl)c3)on2)no1	-1.7%	19%	1	10%	-0.2	-13	6%
Cc1ccc(NS(=O)(=O)c2ccc(C(=O)NCCCN3CCOCC3)cc2)cc1	-2.6%	11%	13	·	·	-15	6%
Cc1ccc(S(=O)(=O)c2nc(NN(C)C)sc2Cl)cc1	·	5%[15.4 µM]	18	-17%	-3.2	10	6%
COC(=O)c1ccc(OCC(O)CNC2CCCC2)cc1 (stereo unspecified)	·	-31%[inhibitor]	-2	0%	-1.4	-8	11%
NC(=O)c1ccc(N=Cc2c(O)ccc3ccccc23)cc1	·	-32%[inhibitor]	·	·	·	0	2%
CCOC(=O)c1ccc(NC(=O)CSC2=NC(=O)C(CC)C(=O)N2)cc1 (stereo unspecified)	-2.6%	-10%	21	-4%	4.5	-14	7%
CCc1ccc(NC(=O)CSc2nc3ccccc3c(=O)n2CCCC(=O)N2CCCC2)cc1	-2.7%	-6%	12	4%	6.1	-3	3%
O=C1CCC2c3ccc4ccccc4c3CCN12 (stereo unspecified)	-24%	18%	-20	4%	6.3	8	5%
O=C(Nc1ccc(Cl)cc1)c1cc(-c2cccs2)on1	?	21%	7	0%	·	-15	-15%
CN1CCOc2cc(S(=O)(=O)NCc3ccc(S(N)(=O)=O)cc3)ccc21	-1.8%	15%[15.4 µM]	-17	10%	·	-3	0%
Cc1noc(C)c1CSc1nnc(-c2ccncc2)n1-c1ccc(Cl)c(Cl)c1	-0.3%	-1%	-14	3%	2.5	9	-6%
COc1cccc(CNC(=O)CCn2ccc3cc(S(=O)(=O)N4CCCC4)ccc32)c1	-0.6%&-0.1%	15%	10	23%	-1.8	-1	-40%
Cc1nc2nc(C)c(CCC(=O)Nc3ccc4c(c3)OCO4)c(C)n2n1	1.1%	30%	3	5%	4.0	-5	10%
O=c1[nH]nc(-c2ccc(F)cc2)cc1Cc1cccs1	0.3%	8%[15.4 µM]	18	-11%	2.3	-7	8%
CCCC[C@@H]1CNCCN1CCc1cccc2ccccc12	-5.4%	-5%	-13	·	·	-21	-5%
COc1ccccc1N(CC(=O)NC1CCCC1)C(=O)c1csnn1	2.4%	-29%	-1	10%	0.1	-2	5%

# Bioassay records: PubChem BioAssay, National Center for Advancing Translational Sciences (NCATS)
